Source: PubChem BioAssay (several laboratories)
RanGTP-Impb inh – disruptors of Ran-importin-beta complex formation – biochemical, FRET, CFP-Ran, YFP-importin-beta, homogeneous, primary screen | cell-free CFP-Ran/YFP-importin-beta FRET ratio | inhibition, % (test concentration not listed) | 300,000 tested, 1.1% active;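 active means most replicates above 15%; inconclusive means exactly half above 15%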;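 further: 0% = DMSO wells and 100% = Ran loaded with GDP instead of GTP; wells of about 40 µL received 100 nL stock; the first replicate is given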
Beta apoptosis – beta cell apoptosis inhibition. INS-1E cytokine-induced death, ATP luminescence, 48 h; percent of positive-control rescue, neutral wells zero. protection from apoptosis, % (no concentration beside the values). 300,000 tested, 0.8% active. AID 435005;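 active means all replicates at 75% or more, or half of them and the mean; inconclusive means half reach 75% but not the mean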;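 further: 0% = cytokine-treated negative control wells and 100% = positive control rescue; higher means more ATP so stronger rescue from cytokine killing; wells of about 40 µL received 100 nL stock; the first replicate is given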
Bfl-1 A1 inh – inhibitors of the anti-apoptotic protein A1, read as caspase activation; AID 2462; 330,000 tested, 0.066% active; caspase activation, % (no concentration beside the values); MEF A1-2A-BIM cells, Caspase-Glo 3/7 luminescence, 3 h; percent of clofoctol response, vehicle zero;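 active means over half of replicate activation scores above 10%, or exactly half above 10 with the replicate mean above 10; inconclusive means replicate mean below 10 yet half the replicates above 10; inactive means over half of replicates below 10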;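 further: wells of about 30 µL received 50 nL stock; many hits fall short of the cut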
Vif TR-FRET – HIV-1 Vif–A3G interaction blockers – biochemical, TR-FRET, GST-Vif 1-94, biotin-A3G peptide, dose response retest, primary screen (AID 1117319); TR-FRET GST-Vif / biotin-A3G peptide binding; higher % means a stronger effect; test concentration not given here; strong numbers were not always called active; one-dose inhibition, %; IC50 in µM for titrated hits; 260,000 tested, 0.57% active;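 active means above the screen mean plus three standard deviations and confirmed in dose response; inconclusive means results disagree or hit not tested in dose response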;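 further: Vif residues 1-94 fused to GST binding biotinylated APOBEC3G peptide 110-148; 0% = full assay without inhibitor and 100% = GST in place of GST-Vif; retest series ran down from 100 µM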
T cruzi inh – blocks replication of Trypanosoma cruzi; AID 1885; 300,000 tested, 1.4% active; T. cruzi beta-gal in NIH3T3, luminescence, 90 h; inhibition, % (concentration not given with the values);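 active means mean inhibition across valid replicates above about 55%, limit read from the data; inconclusive means mean below that limit but half or more replicates reach it; inactive means mean below it, under half of replicates reach it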;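 further: signal also drops with host cell toxicity which is not excluded here; 0% = plate median of DMSO wells and 100% = zero luminescence signal; higher percent means less beta-gal luminescence so fewer parasites; stock transfer was 50 nL into about 50 µL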
Calb FLC – C. albicans growth modulation with fluconazole. C. albicans CaCi-2 (fluconazole-resistant clinical isolate) + fluconazole, Alamar Blue growth, 48 h. 300,000 tested, 0.57% active. AID 1979. growth inhibition, % (no concentration beside the values);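 active means most replicates above 75%; inconclusive means exactly half above 75%; inactive means most below 75%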;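 further: all wells also contain fluconazole at 8 µg/ml as a sub-toxic cotreatment; 0% = median of DMSO wells and 100% = median of geldanamycin control wells; wells of about 8 µL received 7.5 nL stock; the first replicate is given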
AF4-AF9 inh – inhibitors of human MLL-AF4/AF9 interaction | AlphaScreen, biotin-AF4 peptide binding to FLAG-AF9 | inhibition, % at 10 µM | 350,000 tested, 0.47% active;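 active means every replicate reaching a set inhibition limit, whatever the replicate mean, cut at about 25% in these data; inconclusive means mean inhibition reaches that limit but some replicates miss it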;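 further: 0% = plate neutral control median and 100% = total signal loss; the record names both 10 and 1 µM as test concentration; the first replicate is given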
Target sequence (P42568 whole entry, looked up): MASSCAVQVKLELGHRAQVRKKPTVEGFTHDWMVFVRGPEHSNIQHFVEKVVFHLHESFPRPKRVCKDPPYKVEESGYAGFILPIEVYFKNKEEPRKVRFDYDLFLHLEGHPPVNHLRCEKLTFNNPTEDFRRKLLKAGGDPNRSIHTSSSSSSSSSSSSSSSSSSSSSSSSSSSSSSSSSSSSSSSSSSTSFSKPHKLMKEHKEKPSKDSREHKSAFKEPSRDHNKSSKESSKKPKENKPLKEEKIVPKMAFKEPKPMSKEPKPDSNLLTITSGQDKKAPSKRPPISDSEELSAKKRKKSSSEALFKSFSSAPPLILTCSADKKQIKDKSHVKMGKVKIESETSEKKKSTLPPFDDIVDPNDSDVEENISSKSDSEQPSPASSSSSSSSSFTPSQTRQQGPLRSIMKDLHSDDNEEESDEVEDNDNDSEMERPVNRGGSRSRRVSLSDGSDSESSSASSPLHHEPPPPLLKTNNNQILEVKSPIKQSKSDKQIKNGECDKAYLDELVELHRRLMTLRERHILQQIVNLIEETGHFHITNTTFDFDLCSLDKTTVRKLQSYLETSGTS
rRNA inh HTS – inhibitors of bacterial rRNA selective over humanized ribosomes. E. coli WT GFP vs humanized-ribosome RFP mutants, fluorescence, 24 h; active compounds read low; DMSO median 0, no signal -100. GFP signal change (wild-type ribosome), % (no concentration beside the values). 350,000 tested, 1.6% active. AID 720706;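 active means significant combined selectivity score with lowered wild-type GFP, culture density cut under 30%, mutant RFP and density less affected; inactive means any of these conditions unmet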; further: one replicate is shown; some compounds called inactive have numbers as strong as hits
rRNA inh HTS OD600 – further read-out of rRNA inh HTS, marked with its call; OD600 change, %; measured here: OD600 growth;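 optical density of the mix in the first replicate; 0 = DMSO median and -100 = no signal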
rRNA inh HTS RFP – further read-out of rRNA inh HTS, marked with its call; RFP signal change, %; measured here: RFP humanized mutant strains;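 first replicate; 0 = DMSO median and -100 = no signal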
* marks the source's active call; other numbers are inactive results; ? = inconclusive; . = no result given; & = joins results of further samples.

SMILES	RanGTP-Impb inh	Beta apoptosis	Bfl-1 A1 inh	Vif TR-FRET	T cruzi inh	Calb FLC	AF4-AF9 inh	rRNA inh HTS	rRNA inh HTS OD600	rRNA inh HTS RFP
Nc1nc2n[nH]nc2c(=O)[nH]1	4.6	-8	0.4	.	68*	-4	1.5	.	.	.
CC(=O)Nc1cccc(C(=O)OCC(=O)NC(=O)c2ccccc2)c1	-0.3	-3	-1.1	-19%	-7	-3	-1.0	5	4	-0.1
CCCCC(=O)Nc1ccc(C(=O)NNC(=S)NC(=O)c2ccccc2[N+](=O)[O-])cc1	-3.1	3	0.9	10%	14	5	4.5	-8	-3	24
CNC[C@H]1Oc2c(NS(=O)(=O)c3cccs3)cccc2C(=O)N([C@H](C)CO)C[C@@H]1C	.	-2	0.5	.	.	.	-8.1&-21	2&-1	6&7	-1.4&0.6
Cc1ccc(C(=O)NCCc2csc(C)n2)cc1	3.0	-3	-1.2	-1%	-4	-1	1.6	6	10	-0.7
CCC(=O)N1CCc2cc(Br)cc(S(=O)(=O)NC3CCN(Cc4ccccc4)CC3)c21	2.1	0	0.5	5%	-2	0	1.3	0	-1	7.7
O=C(NNc1cc(Cl)ccc1Cl)C1CCC1	-0.6	1	0.0	-4%	-3	0	-0.7	1	10	-3.3
COc1cccc(NC(=O)CN(C)C(=O)CNC(=O)c2ccc(Oc3ccccc3)cc2)c1	-2.1	4	1.0	-1%	-10	-3	1.4	-15	-36	-0.8
COc1cccc2c1OCC/C2=N\NC(=O)COc1ccccc1C	-4.6	8	-1.1	-11%	7	-4	.	.	.	.
COC(=O)c1cc(C#N)c(NCc2ccccc2)nc1C	-0.6	2	-0.1	14%	9	-5	.	.	.	.
CCC(C)NC(=O)CSc1nnc(-c2cc(-c3cccs3)nc3ccccc23)o1 (stereo unspecified)	-3.0	-1	0.0	-6%	32	-8	.	.	.	.
C=CCn1c(SCc2csc(-c3ccc(Cl)cc3)n2)nnc1-c1ccccc1OC	8.7	5	-0.2	10%	32	-2	2.1	-51	-74	-12
Cc1cc(C)c2nc(N3CCC(C(=O)NCCCN4CCCC4=O)CC3)sc2c1	2.2	-6	-0.2	.	-6	19	-3.0	-1	3	0.9
COc1cc(CNCc2ccc(C(=O)O)cc2)ccc1OCc1ccc(F)cc1	-1.1	-1	0.7	8%	2	-3	-1.8	12	12	1.2
CCc1nccn1S(=O)(=O)c1ccccc1[N+](=O)[O-]	-11	-4	0.1	.	0	14	-1.5	23	9	1.7
Cc1ccc(SCC(=O)Nc2nncs2)cc1	4.5	-2	-0.4	.	-16	-3	.	-1	3	-0.9
CCOc1ccc(-n2c(SC(C)C(=O)OC)nc3c(c2=O)SCC3)cc1 (stereo unspecified)	?	-2	0.2	-11%	11	41	.	.	.	.
O=C(NCc1ccccn1)C(=O)NCC(c1ccco1)N1CCN(c2ccc(F)cc2)CC1 (stereo unspecified)	1.0	-2	0.6	0%	6	-3	8.5	-8	-1	-1.7
COc1cc(C)c(C)cc1S(=O)(=O)n1c(C)nc2ccccc21	-2.5	-5	1.2	15%	15	13	-0.7	10	7	2.4
Cc1ccsc1C(=O)N/N=C/c1ccc2c(c1)OCO2	-3.4	51	-6.7	-5%	2	5	9.4	3	7	-3.8
O=C(NC1CCCCC1)C(c1ccc2ncccc2c1)N(Cc1ccccc1)C(=O)c1cccs1 (stereo unspecified)	-1.7	10	-0.2	-10%	9	4	.	9	5	-1.1
c1ccc(CCc2nc(-c3ccc(-n4cccc4)cc3)no2)cc1	1.9	-11	-0.5	-5%	-6	-5	-3.4	-3	0	4.2
CC1CCc2sc3nc(N4CCN(CCO)CC4)n4ncnc4c3c2C1 (stereo unspecified)	2.3	2	-0.6	-1%	23	11	.	.	.	.
CC(C)(C)c1ccc(/C=C/C(=O)Nc2ncccn2)cc1	-3.9	-12	-1.0	-7%	4	-3	.	.	.	.
O=C(NNC1=NCCCCC1)Nc1ccc(Cl)cc1	0.8	.	?	4%	-5	6	-7.1	-1	5	-3.6
Cc1cc(C)nc(NS(=O)(=O)c2ccc(NC(=O)COc3ccccc3F)cc2)n1	.	-5	-2.4	.	.	.	-4.3	0	1	-2.5
C=CCNC(=S)/N=c1/ccccn1CCC	-0.1	3	0.4	-1%	-21	-3	-8.4	18	3	1.4
O=C(CSc1nnc(-c2ccccc2)n1-c1ccccc1)c1cccs1	0.6	-3	0.0	0%	11	?	.	.	.	.
Cc1cc(C)c(S(C)(=O)=O)c(S(=O)(=O)c2ccc(Cl)cc2)n1	-3.1	-2	0.7	-1%	-6	9	.	.	.	.
O=C(CN(C(=O)c1csnn1)c1ccccc1Cl)NC1CCCCC1	1.6	.	.	.	0	8	1.4	-11	-12	5.6
COC(=O)[C@]1(C)N[C@H](CN(C)C(=O)c2ccccc2)[C@@H]2C(=O)N(C)C(=O)[C@@H]21	.	-6	0.1	12%	.	.	-1.3	1	1	0.2
O=C1C=C(N(CCO)CCO)C2(CCCCC2)O1	-1.8	-2	1.4	1%	-11	6	.	.	.	.
CCNc1nc(NC(C)C)nc(NS(=O)(=O)c2ccc(C)cc2)n1	5.6	-5	0.4	4%	-9	8	-1.7	16	18	4.2
CC/C=C/C(=O)N1CC2(CC(c3cccc(NC(=O)CCCCC)c3)=NO2)C[C@H]1C(N)=O (stereo partly specified)	0.6	-20	0.2	13%	26	-1	-0.5	4	-3	4.6
Cc1ccc(S(=O)(=O)n2nc(-c3ccc(Cl)cc3)nc2NCc2ccco2)cc1	-0.1	3	1.5	1%	37	5	.	.	.	.
Cc1cc(C(=O)Nc2nc3ccc(S(C)(=O)=O)cc3s2)c(C)o1	3.9	10	-6.0	7%	24	-9	-8.8	6	-6	6.1
COc1cccc(C(=O)NC2CCNCC2)c1	-1.5	-5	1.1	-12%	11	-5	-2.6	27	14	4.0
O=C(Cc1ccccc1)Nc1ncccc1Cl	0.0	-1	0.1	.	-4	-1	1.6	12	11	-1.0
Nc1nn2c(C(F)(F)F)cc(=O)[nH]c2c1N=Nc1cccc(F)c1	-8.1	-11	0.2	.	10	7	.	.	.	.
COC(=O)c1ccc(COc2ccc(C)c(C)c2)o1	?	.	-2.6	3%	7	-12	-2.6	3	2	-0.6
O=C(O)c1cccc(S(=O)(=O)N(Cc2ccccc2)c2ccc(Cl)cc2)c1	2.6	4	0.7	3%	-18	8	-2.0	-44*	-32*	-6.0*
Cc1ccccc1OCc1nc(-c2ccc(NC(=O)c3cccs3)cc2)no1	8.4	9	-7.8	-30%	37	6	.	.	.	.
COc1ccc(Br)cc1/C=N/n1c(C)nc2ccccc2c1=O	1.9	.	.	0%	-1	0	2.2	9	14	-1.9
Cc1ccc(N=C2SCCCN2C(=O)C2=COCCO2)cc1Cl	.	-6	-0.8	.	-13	1	-2.5	3	5	-0.3
Cc1ccc(-n2c(SCC(=O)NCc3ccco3)nc3nc4c(cc3c2=O)COC(C)(C)C4)cc1	-3.8	.	.	?	11	12	.	.	.	.
CCOC(=O)/C=C1\NC(C)(C)Cc2cc(OC)c(O)cc21	0.1	-3	-0.2	-1%	0	8	.	.	.	.
O=C(CN1C(=O)C2CC=C(Cl)CC2C1=O)N1CCOCC1 (stereo unspecified)	-3.5	-1	-0.3	19%	-6	-1	.	.	.	.
CCC(=O)Nc1ccc(Cl)c(NC(=O)c2ccc(Br)o2)c1	-2.0	-4	0.0	-3%	17	-27	.	.	.	.
Nc1ccc(C(=O)c2ccccc2C(=O)O)cc1Cl	-5.0	-7	0.9	7%	1	10	0.2	16	10	-0.4
Cc1cccc(-c2nc(-c3ccncc3)no2)c1	-1.8	-1	-9.9	4%	-11	-45	-4.0	7	12	1.3
Cc1cccc(C)c1NC(=O)Cc1cccs1	0.1	-2	-0.7	.	-5	6	-1.1	5	9	-3.2
O=C(Nc1ccc2c(c1)oc1ccccc12)N1CCOCC1	1.7	-3	-0.2	6%	-10	-2	.	.	.	.
O=C1C(=O)N(c2nccs2)C(c2ccccc2)/C1=C(\O)c1ccc2c(c1)OCCO2 (stereo unspecified)	1.8	-6	-1.2	-9%	-49	-9	.	.	.	.
Cc1cc(C(=O)CN2CCC(C)CC2)c(C)n1-c1ccc(F)cc1	6.9	-1	-0.2	?	32	7	7.7	2	2	0.8
CCCCCNC(=O)C1CC=CCC1C(=O)O (stereo unspecified)	-4.1	-6	0.5	6%	-2	2	.	.	.	.
O=C(c1cc(=O)[nH]c2ccccc12)N1CCN(S(=O)(=O)c2ccc(Cl)cc2)CC1	.	6	1.7	.	.	.	-0.2	1	8	-3.3
O=c1c2[nH]cnc2n(-c2cccc(F)c2)c(=O)n1Cc1ccccc1	-0.9	-4	-1.4	-5%	-14	0	-3.8	3	3	-0.8
CCCCNC(=O)c1onc(CSc2ccccc2F)c1C(=O)O	-2.9	-4	-0.8	19%	0	-2	0.8	-52	-77	-16
COC(=O)/C(C#N)=C/c1c[nH]c2ccccc12	-2.3	1	0.0	3%	-13	23	13	-22*	-16*	3.1*
CC(=O)c1ccc(N(C(=O)c2ccco2)C(C(=O)NC2CCCC2)c2cccs2)cc1 (stereo unspecified)	2.2	0	0.0	.	3	4	3.8	0	-2	0.1
COc1cccc(CC(=O)OCC(=O)NCc2ccc3c(c2)OCO3)c1	.	-8	0.1	-4%	.	.	-0.2	2	11	2.5

Not all compounds are listed. The share of hits here may be higher or lower than overall.
